TRPML1 blocker: qHTS for Inhibitors of the Human Mucolipin Transient Receptor Potential 1 (TRPML1). Mucolipin-1 (Homo sapiens), Q9GZU1. TRPML1-inducible cells, Ca2+ dye fluorescence, FDSS; hits give low values; inhibition of EC80 agonist-evoked calcium signal. activity change, negative = inhibition, % (test concentration not listed). actives 0.02% (n = 390,000). AID 624415, 2012; in the data active means activity change below about -50%; inconclusive means about -30% to -50%; inactive means above about -30%;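 note: stimulus is agonist 54-4 at its EC80 concentration; % is set by controls: 0 for no effect and ±100 for the full control effect; compound concentration not given in the record; the text of the record puts the active cut at -80%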
Target sequence (Q9GZU1 whole entry, looked up): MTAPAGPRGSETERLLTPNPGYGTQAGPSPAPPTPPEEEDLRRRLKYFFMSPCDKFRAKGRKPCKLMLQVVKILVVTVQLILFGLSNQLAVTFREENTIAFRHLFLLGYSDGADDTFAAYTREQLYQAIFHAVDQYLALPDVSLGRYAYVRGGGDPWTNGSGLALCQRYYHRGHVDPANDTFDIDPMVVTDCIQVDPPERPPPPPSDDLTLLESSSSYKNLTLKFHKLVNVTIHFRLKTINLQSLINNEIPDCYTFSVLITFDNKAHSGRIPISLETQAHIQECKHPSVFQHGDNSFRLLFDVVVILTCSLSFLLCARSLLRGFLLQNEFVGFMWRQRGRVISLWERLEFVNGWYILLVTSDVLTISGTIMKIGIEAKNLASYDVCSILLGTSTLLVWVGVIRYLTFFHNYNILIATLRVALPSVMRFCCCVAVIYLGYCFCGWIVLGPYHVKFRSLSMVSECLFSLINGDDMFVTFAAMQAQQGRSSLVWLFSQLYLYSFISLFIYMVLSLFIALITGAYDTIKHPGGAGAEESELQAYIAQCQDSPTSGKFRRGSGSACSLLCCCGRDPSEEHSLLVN
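Calcium fluorescence in TRPML1-DL cells induced overnight with Tet: a 110 s read after compound pin addition, then a 110 s antagonist read after challenge with 54-4 at 4 uM final (EC80).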
TRPV1 PAM: HTS Assay for Compounds that Act as Potentiators of the Vanilloid Receptor 1. TRPV1-expressing cells, Fluo-8 calcium influx, capsaicin EC20 potentiation; host cell line not named in the record; control for the full effect not named in the record. actives 0.02% (n = 320,000). potentiation, % at 8.33 µM. Transient receptor potential cation channel subfamily V member 1 (Homo sapiens), Q8NER1; active means potentiation above 80%; inconclusive means 30% to 80%; inactive means below 30%; note: 0% is about no effect
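TRPV1-expressing cells were cultured overnight at 35.5C and loaded with Fluo-8 calcium dye for 40 to 90 min at room temperature. After a 10 s baseline, compound was added and calcium influx was read kinetically for 3 min (ex 480/em 520 nm).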
Sfp inh: qHTS Assay for Inhibitors of Bacillus subtilis Sfp phosphopantetheinyl transferase (PPTase); actives 3.5% (n = 310,000); 4'-phosphopantetheinyl transferase ffp (Bacillus subtilis), Q9F4F7; AID 1490, 2009; Biochemical Sfp PPTase activity, qHTS; Potency, µM, for inactives: max response, negative = inhibition, hits mostly inhibitors; active = well fitted inhibition curve with a large enough effect; inconclusive = small, poorly fitted or top-dose-only effect, or another doubt; inactive = no such curve, though single readings can be large or run the other way;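 note: the enzyme is Sfp with the accession as filed and its product quenches rhodamine fluorescence; potency is the fitted concentration of half-maximal effect; 0% = enzyme reaction without inhibitor and -100% = no enzyme wells; top concentration of the series not given in the record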
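With Hepes-Na pH 7.6 buffer containing 10 mM MgCl2, Sfp (15 nM) modified BHQ-2-YbbR (12.5 uM) using rhodamine-CoA (5 uM). Two reads 30 minutes apart at 525/598 nm yielded each well's rate.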
TRPML1 agonist: qHTS for Agonists of the Human Mucolipin Transient Receptor Potential 1 (TRPML1); Mucolipin-1 (Homo sapiens), Q9GZU1; TRPML1-expressing cells, Ca2+ dye fluorescence, FDSS; host cell line not named in the record; reference of the full effect not given here; activation, % (concentration not given with the values); actives 0.12% (n = 410,000); AID 624414, 2012; in the data active = activation above about 50%; inconclusive = about 30% to 50%; inactive = below about 30%; note: 0% is about no effect; the text of the record puts the active cut at 80%
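Kinetic FDSS Ca2+ read in Tet-induced TRPML1-DL cells (ABD Ca8 dye plus quencher, 45-90 min RT loading): baseline, then compound, then 110 s agonist window; EC80 agonist 54-4 at 4uM final added afterwards for a 110 s antagonist window.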
Menin MLL FP FL: qHTS Assay for Inhibitors Targeting the Menin-MLL Interaction in MLL Related Leukemias: Competition With Fluorescein Labeled MLL-derived Peptide | Fluorescence polarization, fluorescein-MLL peptide displacement from menin | AID 1766, 2009 | FP activity change, % at 61.4 µM | 290,000 tested, under 10 active; inconclusive = falling polarisation curve, or a change in total fluorescence; inactive = total fluorescence flat and polarisation flat or rising; no compound was filed as active; the % refers to the polarisation; negative = inhibition;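 note: % of control where 0% means no effect; inhibitors lower the polarisation; unlabelled MLL peptide was the positive control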
PINK1 modulator: A Quantitative High throughput Screen to Identify Chemical Modulators of PINK1 Expression | PINK1 immunofluorescence, high-content cytometry, 24 h | Potency, µM (top dose mostly 76.6 µM), without a hit: at the top dose activation (PINK1 increase), hits mostly activators | actives 0.2% (n = 410,000) | AID 624263, 2012; active = well fitted activation curve with a large enough effect; inconclusive = small, poorly fitted or top-dose-only effect; inactive = flat fitted curve, though single readings scatter; cell line not stated here;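 note: potency is the fitted concentration of half-maximal effect; % of control where 0% means no effect; nearly all actives have a fitted effect of over 65% in size; a mitochondrial uncoupler was the plate control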
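Fluorescence from anti-PINK1 antibody, together with nuclear and cell stains, was scanned on a laser-scanning cytometer. Before staining, stable-line cells were incubated 24 hours with compounds at 5 concentrations; primary antibody 12 h at 10 degrees C.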
ClpP mod: qHTS Assay for Activators of ClpP. purified B. subtilis ClpP, FRET peptide cleavage, 20 min. Potency, µM (series often up to 57.5 µM), for inactives: top-dose activity change, negative = active. actives 1.9% (n = 340,000). AID 651965, 2013; active = well fitted falling curve with a large enough effect; inconclusive = small, poorly fitted or top-dose-only effect; inactive = no such curve, though single readings can be large or run the other way; note: potency is the fitted concentration of half-maximal effect; the source files actives as falling curves though it sought activators and does not explain the sign; nearly all actives have a fitted effect of over 65% in size; many hits overshoot -100%
Target sequence (P80244 whole entry, looked up): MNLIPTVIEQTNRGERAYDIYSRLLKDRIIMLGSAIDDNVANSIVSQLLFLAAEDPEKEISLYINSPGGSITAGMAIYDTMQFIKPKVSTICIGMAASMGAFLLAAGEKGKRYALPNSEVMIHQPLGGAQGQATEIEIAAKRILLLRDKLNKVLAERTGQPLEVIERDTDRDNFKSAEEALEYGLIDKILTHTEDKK
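FRET quenching reversal measured ClpP activation: 10 microg/mL B. subtilis ClpP at pH 8 with the FRET-FV decapeptide, read at 430 nm after 320 nm excitation. The 20-min minus 0-min signal was scaled between DMSO/no-enzyme wells and ADEP (5.8 microM final).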
Active calls of the source: *; ? = inconclusive; . = not tested or not shown; & = joins results of further samples. Compounds were not picked by outcome; about 4.4% have a hit in one of these screens.

SMILES	TRPML1 blocker	TRPV1 PAM	Sfp inh	TRPML1 agonist	Menin MLL FP FL	PINK1 modulator	ClpP mod
Cc1ccccc1N1CCN(C(=O)c2ccccc2NC(=O)c2ccccc2C(=O)O)CC1	-10	-24	13%	4.8	-4.4	-1.0%	.
O=C(OCC(=O)N1CCCC1)c1cncc(Br)c1	38	9	9%	1.2	-1.2	-2.5%	-6.0%
Cc1cc(C)c(C#N)c(SCS(=O)Cc2ccc(Cl)cc2)n1 (configuration not stated)	1	-5	2%	0.7	2.6	.	-0.1%
CC(C)c1cnc2c(c1SCC(=O)c1ccccc1)c(=O)n(C)c(=O)n2C	12	.	.	3.2	.	-0.1%	-1.2%
COc1ccc(C(=O)Nc2ccc3oc(-c4cccnc4)nc3c2)cc1OC	3&-11	1	15%	0.0&0.3	-0.2	3.3%&0.6%	?
CC(C)(Oc1ccc(Cl)cc1)C(=O)Nc1c2c(nn1C(C)(C)C)CS(=O)(=O)C2	-12	-3	.	3.8	.	1.2%	0.6%
CCOc1ccc(/C=C2\SC(=S)N(NC(=O)c3ccncc3)C2=O)cc1OC	-6	-4	7%	0.7	?	-2.5%	-2.9%
O=C(CSc1nnc(-c2ccccc2)o1)N1CCCC1	7	-8	20%	-0.4	2.1	2.0%	.
COC(=O)C1=C(C(=O)OC)[C@@H]2N(C)c3ccc(OC)cc3[C@@]23C[C@@H](C(=O)OC)N(C(=O)NCCBr)C3=N1	37	.	.	0.2	.	5.6%	0.5%
CCOc1ccc(-n2c(-c3ccccc3)c[n+]3c2CCCCC3)cc1	-14	7	22%	0.7	2.4	?	0.1%
Cc1cc(C)n2nc(SCC(=O)N(C(C)C)C(C)C)nc2n1	8	-1	8%	-0.7	1.7	-0.3%	-9.6%
O=C(NC1CCCCC1)C(c1ccco1)N(C(=O)c1csnn1)c1ccc(Cl)cc1 (configuration not stated)	11	0	20%	0.6	3.8	2.6%	.
O=C(C1CC1)N1N=C(c2cccc(Br)c2)CC1(O)C(F)(F)F (configuration not stated)	8	-6	-5%	0.5	-1.2	6.4%	-25%
CC(C)Cn1c(O)c2ccc(C(=O)N=NC(=O)c3cccnc3)cc2c1O	23	-2	17%	0.3	2.2	3.9%	-23%
COc1ccc(S(=O)(=O)N2CCCCCC2)cc1C(=O)N(C)Cc1ccc(F)cc1	8	-25	.	1.4	.	-1.4%	-24%
CCCS(=O)(=O)NC(=O)C1(C)CCN(C(=O)c2nc(C)oc2C)C1 (configuration not stated)	.	.	.	-0.7	.	-0.5%	1.7%
NC(=S)Nc1cc(Cl)ccc1Cl	-11	-9	?	1.8	-1.2	-4.4%	-0.1%
O=C(/C=C/c1cccc([N+](=O)[O-])c1)NCc1ccc2c(c1)OCO2	-1	-3	-8%	0.8	3.4	-1.6%	1.0%
Cc1cccn2c(=O)c3cc(C(=O)NC(C)c4ccccc4)c(=N)n(CCCO)c3nc12 (configuration not stated)	-3	.	.	-1.0	.	-0.7%	4.0%
O=C(CSc1ccc2c(c1)OCCO2)NC(=O)NC1CCCC1	-13	-3	-18%	2.8	0.7	0.9%	1.6%
COc1ccc(S(N)(=O)=O)cc1C(=O)OCCCC(=O)c1ccccc1	30	2	.	-0.8	.	0.5%	0.6%
CC(NC(=O)c1ccco1)C(=O)N1CCc2ccccc2C1 (configuration not stated)	-1	11	9%	2.4	1.9	-0.4%	0.0%
COc1ccc(S(=O)(=O)N2CCN(c3ccc4nnc(-c5ccccc5)n4n3)CC2)cc1	-9	-9	-1%	-0.8	6.6	2.2%	?
OC[C@@H]1CN(Cc2cccs2)C[C@H](n2cnc3c(NC4CCC4)ncnc32)O1	.	.	.	-0.5	.	1.2%	0.0%
O=C(NC(=S)Nc1ccc(NC(=O)c2cccs2)cc1)c1cc2ccccc2o1	-2	?	-23%	0.3	0.6	4.1%	-3.4%
CN(c1ccc(C(=O)Nc2ccc(Cl)cn2)cc1)S(=O)(=O)c1ccccc1	52	8	-4%	1.9	-5.3	0.9%	-8.4%
CC(NC(=S)Nc1cccc(C(F)(F)F)c1)C(C)(C)C (configuration not stated)	-3	17	4%	0.1	0.1	?	-0.8%
COc1ccc(OC)c(/C=C2\SC(=S)N(NS(=O)(=O)c3ccccc3)C2=O)c1	9	?	1%	0.6	18	-3.5%	-0.4%
CCOC(=O)c1c(C)c(C(=O)Nc2ccc3c(c2)OCCO3)c(C)n1CC	-9	3	4%	1.2	3.9	?	-0.4%
CCOC(=O)c1c(NC(=O)C(C)Sc2cn(CCNC(=O)c3ccccc3OC)c3ccccc23)sc2c1CCC2 (configuration not stated)	12	.	.	1.5	.	1.5%	-5.2%
CN(CC(=O)Nc1cccc(F)c1)C(=O)c1cccc(-n2cccc2)c1	0	10	.	0.4	.	1.3%	1.3%
CC1CCN(CCCn2c(SCC(=O)NC3CCCC3)nc3ccccc3c2=O)CC1	-13	1	6%	-0.5	0.0	0.6%	-1.5%
O=C(NCc1n[nH]c(=S)n1Cc1ccccc1)c1ccccc1	2	?	-13%	0.3	2.4	-1.8%	0.6%
CCNc1ncc2nc(C)c(=O)n(Cc3ccc(F)cc3)c2n1	.	.	-27%	.	?	10%	.
CSc1ccccc1C(=O)C1CCCN(C(=O)c2cccc(Cn3cccn3)c2)C1 (configuration not stated)	-12	.	.	-0.2	.	2.0%	-3.0%
COc1cccc(Nc2nc(C)cc(C)c2C(N)=O)c1	9	6	6%	-0.2	-2.3	-0.4%	-8.1%

Structural class: the entries above containing a CF3 group (2)
SMILES	TRPML1 blocker	TRPV1 PAM	Sfp inh	TRPML1 agonist	Menin MLL FP FL	PINK1 modulator	ClpP mod
O=C(C1CC1)N1N=C(c2cccc(Br)c2)CC1(O)C(F)(F)F (configuration not stated)	8	-6	-5%	0.5	-1.2	6.4%	-25%
CC(NC(=S)Nc1cccc(C(F)(F)F)c1)C(C)(C)C (configuration not stated)	-3	17	4%	0.1	0.1	?	-0.8%

Other entries follow:
SMILES	TRPML1 blocker	TRPV1 PAM	Sfp inh	TRPML1 agonist	Menin MLL FP FL	PINK1 modulator	ClpP mod
CC(C)[C@@H](CO)NC(=O)c1ccc2c3n(nc2c1)-c1ccc(Cl)cc1CO3	10	-24	-8%	1.1	-0.2	-0.6%	?
CCCn1c(=O)c(C(=O)N/N=C/c2ccc(F)cc2)c(O)c2ccccc21	12	2	3%	-0.2	3.7	0.2%	.
CNc1cc(-c2cc(OC)ccc2OC)ncn1	.	.	.	-0.5	.	2.3%	4.6%
CC(C)c1ccc(Nc2ncccc2C(=O)O)cc1	78	-6	-15%	0.8	-1.1	1.1%	.
CC(C)(C)C1CCC(C(=O)NCCc2ccc(S(N)(=O)=O)cc2)CC1 (configuration not stated)	-11	-2	8%	-0.4	-12	-0.4%	.
CCc1nc(SCC(=O)Nc2ccnc3ccccc23)n[nH]1	21	0	-2%	0.4	3.2	.	-0.5%
CCN1C(=O)c2ccccc2Sc2ccc(C(=O)O)cc21	40	3	15%	0.2	-5.4	1.6%	.
Cc1ccccc1NC(=S)NCC(c1cccnc1)N(C)C (configuration not stated)	23	21	-26%	0.8	-1.4	-0.6%	-0.2%
CCS(=O)(=O)N1CCc2cc(C(=O)Nc3cc(C(F)(F)F)ccc3Cl)ccc21	30	.	.	0.3	.	6.0%	-21%
CCCCOC(=O)C1=C(C)NC(=O)NC1c1ccc2c(c1)OCO2 (configuration not stated)	2	.	.	-0.9	.	-1.1%	.
CC(C)(C)c1nc(C(C)(C)C)c(Br)c(=O)[nH]1	46	-5	-1%	0.6	-1.9	?	1.0%
Cc1cc(C)nc(NS(=O)(=O)c2ccc(N/C=C3\CCCC3=O)cc2)n1	9	0	6%	0.1	5.9	5.0%	-7.8%
CCCc1[nH]nc2c1C(c1ccccc1OCC)C(C#N)=C(N)O2 (configuration not stated)	-8	-5	1%	-0.5	2.1	3.2%	1.0%
CCCOc1ccc(C(=O)CCC(=O)OCC(=O)Nc2cccc(S(N)(=O)=O)c2)cc1	1	-16	.	2.8	.	-1.4%	.
CCOC(=O)c1nn(-c2ccc(Cl)cc2)c2nc(CC)c(C#N)c(=O)n12	15	10	4%	2.6	0.8	-2.6%	896%
CN(C)C(=O)c1ccc(-c2ccc3ncnc(N(C)C)c3c2)cc1	.	.	10%	.	1.3	-0.9%	.
O=C(NCCc1ccccc1)c1c(O)c2ccccc2[nH]c1=O	20	11	5%	-0.2	2.2	9.5%	.
O=S(=O)(c1cccs1)N1CCN(Cc2nc3ccccc3s2)CC1	-7	8	5%	0.7	5.2	-1.7%	-2.6%
COc1ccc(CN2CC(C(=O)NCCN3CCOCC3)CC2=O)cc1 (configuration not stated)	23	.	7%	-0.4	3.3	0.5%	-2.8%
O=C(O)CSC(C(=O)Nc1ccc(C(F)(F)F)cc1)c1ccccc1 (configuration not stated)	16	8	8%	2.5	-0.2	-2.8%	7.2%
CN(C)S(=O)(=O)c1ccc(NC(=O)CN2CCN(c3ccccn3)CC2)cc1	-2	-3	5%	0.8	1.2	0.4%	.
CC1(C)CC(=O)C(N=Nc2c(Cl)cc(Cl)cc2Cl)=C(O)C1	17	9	-4%	1.5	-1.1	6.1%	-0.6%

In the list so far, four contain a thiophene ring, fused or not.
SMILES	TRPML1 blocker	TRPV1 PAM	Sfp inh	TRPML1 agonist	Menin MLL FP FL	PINK1 modulator	ClpP mod
OC[C@@H]1CN(Cc2cccs2)C[C@H](n2cnc3c(NC4CCC4)ncnc32)O1	.	.	.	-0.5	.	1.2%	0.0%
O=C(NC(=S)Nc1ccc(NC(=O)c2cccs2)cc1)c1cc2ccccc2o1	-2	?	-23%	0.3	0.6	4.1%	-3.4%
CCOC(=O)c1c(NC(=O)C(C)Sc2cn(CCNC(=O)c3ccccc3OC)c3ccccc23)sc2c1CCC2 (configuration not stated)	12	.	.	1.5	.	1.5%	-5.2%
O=S(=O)(c1cccs1)N1CCN(Cc2nc3ccccc3s2)CC1	-7	8	5%	0.7	5.2	-1.7%	-2.6%

Screening results from PubChem.
